Screening data deposited in PubChem BioAssay by National Center for Advancing Translational Sciences (NCATS).
ClpP mod = qHTS Assay for Activators of ClpP; actives 1.9% (n = 340,000); ATP-dependent Clp protease proteolytic subunit (Bacillus subtilis (strain 168)), P80244; purified B. subtilis ClpP, FRET peptide cleavage, 20 min; Potency, µM (top dose mostly 57.5 µM), for inactives: top-dose activity change, negative = active; AID 651965, 2013; active = well fitted falling curve with a large enough effect; inconclusive = small, poorly fitted or top-dose-only effect; inactive = no such curve, though single readings can be large or run the other way; further: the source files actives as falling curves though it sought activators and does not explain the sign; nearly all actives have a fitted effect of over 65% in size; many hits overshoot -100%
Target sequence (P80244 whole entry, looked up): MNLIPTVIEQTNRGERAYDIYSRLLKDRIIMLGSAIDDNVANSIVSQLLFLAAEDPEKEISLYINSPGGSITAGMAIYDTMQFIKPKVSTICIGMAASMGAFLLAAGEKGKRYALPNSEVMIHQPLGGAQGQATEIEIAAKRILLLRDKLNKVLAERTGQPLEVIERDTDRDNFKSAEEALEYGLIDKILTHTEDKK
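Buffer: 100 mM Tris/HCl pH8, 100 mM KCl, 0.05% low protease BSA, 2.5% glycerol, 0.01% Tween-20. ClpP 10 microg/mL final; 20 min RT; delta FRET normalized to ADEP and DMSO controls.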
The depositor's hits bear a star; ? = inconclusive; & = joins results of further samples. Potency means the concentration at half of the fitted maximal effect. The list is partial; rates above refer to the full screens.

SMILES | ClpP mod
COc1cccc(NC(=O)Cn2c(=O)n(CCc3ccccc3)c(=O)c3c4c(sc32)CN(C(C)=O)CC4)c1 | -4.0%
Cc1ccc2ncc(C(=O)NC(C)c3ccccc3)c(=O)n2c1 (stereo unspecified) | 3.7%
CCCNC(=O)Cn1ncc2c3ccccc3n(CCC)c2c1=O | 4.8%
O=C(NCCCN1CCN(c2ccccc2)CC1)c1nnc(Cc2c(F)cccc2Cl)o1 | -1.7%
Cc1ccc(-n2ccnc(NCCc3ccccc3)c2=O)cc1C | -5.9%
Cc1ccc(OCC(=O)NCC2(N3CCOCC3)CCCCC2)cc1C | -1.7%
COc1ccc(C2CC(=O)Nc3c2c(C)nn3-c2nc(C)cc(C)n2)c(OC)c1OC (stereo unspecified) | -3.5%
CC(C)NC(=O)Cn1c(=O)nc(-c2ccccc2F)c2cc(Cl)ccc21 | -4.3%
COc1ccc(C(=O)Nc2ccc3oc(-c4cccc5c(Br)cccc45)nc3c2)cc1 | 14.7%
CCCS(=O)(=O)N1CC(=O)N(c2ccc(C)c(Cl)c2)C(C)(C(=O)NC2CCCCCC2)C1 (stereo unspecified) | 2.2%
COc1ccc(-c2nnc(SCC(=O)NC3CCCC3)nc2-c2ccc(OC)c(OC)c2)cc1OC | ?
N#Cc1cccc(NC(=O)C2CCN(c3ncccn3)CC2)c1 | -17.7%
CCOC(=O)c1cnc2c(C)cc(C)cc2c1NCCc1ccc(OC)c(OC)c1 | -5.1%
CN(C)S(=O)(=O)N(CC(=O)NCCSc1ccccc1)c1ccccc1 | 1.0%
Cc1cccc(Nc2nc(N)nc(N)c2S(=O)(=O)c2ccccc2)c1 | -1.7%
COc1ccc(C)cc1NC(=O)CSc1ncc2c(n1)-c1ccc(Cl)cc1N(Cc1ccccc1)S2(=O)=O | -3.3%
CCN1CCN(c2ncc3c(n2)CCN(Cc2cc(F)cc(F)c2)C3)CC1 | -2.4%
Cc1cccc(N2CCN(CCCNc3ncnc4onc(-c5ccc(F)cc5)c34)CC2C)c1 (stereo unspecified) | -2.2%
CCOc1ccc(C2=CC(c3cccc(Br)c3)n3c(nc4ccccc43)N2)cc1Cl (stereo unspecified) | -3.3%
CCC1CN(C(=O)Nc2cccc3c2CCCC3)c2ccccc2O1 (stereo unspecified) | -2.2%
C=CCN(CC=C)c1ccc(/C=C/c2ccnc3ccccc23)cc1 | -7.4%
CCOc1cc(OCC)cc(C(=O)Nc2cccc(-c3nc4ccccc4[nH]3)c2)c1 | 202.8%
CC(C)(C)c1ccc(C(=O)NCC(c2cccnc2)N2CCc3ccccc3C2)cc1 (stereo unspecified) | -2.0%
CCCCc1nn2c(=O)cc(COC(=O)c3cccc(NC(=O)c4cccc(Cl)c4)c3)nc2s1 | -0.6%
CC1=C(C(=O)Nc2ccccc2)C(CC(C)C)n2nc(SCc3ccccc3C)nc2N1 (stereo unspecified) | -9.6%

Sorted by SMILES length (rising): part of the list above.
SMILES | ClpP mod
Cc1ccc2ncc(C(=O)NC(C)c3ccccc3)c(=O)n2c1 (stereo unspecified) | 3.7%
C=CCN(CC=C)c1ccc(/C=C/c2ccnc3ccccc23)cc1 | -7.4%
CCCCc1nn2c(=O)cc(COC(=O)c3cccc(NC(=O)c4cccc(Cl)c4)c3)nc2s1 | -0.6%

New compounds follow.
SMILES | ClpP mod
CC(C)NS(=O)(=O)c1ccc2[nH]c3nc(SCC(=O)Nc4ccc(F)c(F)c4)nnc3c2c1 | -0.6%
CC(NC(=O)c1cccc(Nc2nc3ccccc3n3nnnc23)c1)c1ccccc1 (stereo unspecified) | 4.4%
CCc1ccc(NC(=O)C2=CC(c3ccc4c(c3)OCO4)=NS(=O)(=O)N2C)cc1 | -0.4%
O=C(NCCc1nc2ccccc2n1Cc1ccc(F)cc1)c1ccco1 | -2.8%
COc1ccc(C)cc1NC(=O)CCS(=O)(=O)c1cc2c3c(c1)CCN3C(=O)CC2 | 0.2%
O=C1CN(C(=O)c2c(F)cccc2Cl)C(c2ccc(F)cc2)c2cc(Br)ccc2N1 (stereo unspecified) | 0.9%
O=C(CCCCCn1c(=O)c2sccc2n(Cc2ccccc2Cl)c1=O)NCc1ccc2c(c1)OCO2 | 2.1%
CCN(CC)C(=O)c1sc2c(c1C)c(=O)n(-c1ccc(OC)cc1OC)c(=O)n2CC(=O)Nc1ccccc1 | -3.6%
CC(=O)c1cccc(NC(=O)CCn2nc(C)c(S(=O)(=O)N3CCCCC3)c2C)c1 | -0.8%
COC(=O)CNC(=O)N1CCN(S(=O)(=O)c2ccc3c(ccn3C)c2)CC1 | -3.7%
CCN(CC)c1ccc2cc(-c3nc4sc5c(c4c(=O)[nH]3)CCC(C(C)(C)C)C5)c(=O)oc2c1 (stereo unspecified) | -2.9%
Cc1ccc(Cl)cc1N1CCN(C(=O)c2ccc(CS(=O)(=O)c3ccccc3C)o2)CC1 | -1.2%
COc1ccc2c(C)c(CCC(=O)NCc3cccc(Cl)c3)c(=O)oc2c1 | 4.9%
Cc1ccc(CNC(=O)CCCCCn2c(=O)c3sccc3n(CC(=O)Nc3ccc(C)c(F)c3)c2=O)cc1 | -0.4%
CCN(CC)c1cc(C)c2cc(NC(=O)c3cccc(OC)c3)ccc2n1 | -7.0%
Cc1cccc(-n2ncc(C(=O)N3CCN(c4ccc(Cl)cc4)CC3)c2C2CCN(C(=O)OC(C)(C)C)CC2)c1 | 1.2%
CCCCNc1nc2c(-c3cccc(C)c3)nnn2c2ccccc12 | -5.4%
COc1ccc(Cl)cc1NC(=O)CN(c1cc(C)cc(C)c1)S(=O)(=O)c1c(C)n[nH]c1C | 0.0%
CC(C)(C)OC(=O)N1CCC(c2c(C(=O)N3CCN(c4ncccn4)CC3)cnn2-c2ccccc2)CC1 | -0.9%
Cc1nn(C(C)(C)C)c(OC(=O)c2cccc(F)c2)c1Sc1ccccc1 | 0.3%
COc1ccc(N2CCN(C(CNC(=O)c3cccc(OC)c3)c3cccnc3)CC2)cc1 (stereo unspecified) | -8.2%
CCc1ccc(NC(=O)Cn2c(=O)n(Cc3ccc(C)cc3)c(=O)c3cccnc32)cc1 | -0.5%
COc1ccccc1NC(=O)C1=C(C)Nc2nc(SC)nn2C1c1ccccc1Cl (stereo unspecified) | -2.4%
Cc1ccc(N2CCN(C(=O)c3cn(C)c4ccc(S(=O)(=O)N5CCCC5)cc4c3=O)CC2C)cc1 (stereo unspecified) | 1.8%
Cc1cc(-c2ccc(C)c(S(=O)(=O)NCc3cccs3)c2)on1 | 1.2%

Remaining list, next part
SMILES | ClpP mod
COc1ccc(/C=C\c2onc(C)c2S(=O)(=O)N2CCC(C(=O)Nc3cccc(OC)c3)CC2)cc1 | -23.6%
CC(=O)N1CCCc2cc(S(=O)(=O)N(C)CC(=O)Nc3ccc(C)cc3C)ccc21 | 0.6%
CCOC(=O)N1CCc2c(sc3c2c(=O)n(Cc2ccccc2)c(=O)n3CC(=O)Nc2cccc(CC)c2)C1 | -0.7%
CCN(CC)C(=O)C1CCCN(c2ncnc3c2nc2n3CCCCC2)C1 (stereo unspecified) | 0.2%
Cc1nc2c(C(=O)NCCc3ccc(Cl)cc3)cnn2c(C)c1Cc1ccc(F)cc1 | 25.1µM*
Cc1ccc(-n2c(SCC(=O)NCc3ccccc3)nc3n[nH]c(C)c3c2=N)cc1Cl | 4.4%
Cc1ccc(NC(=O)Cn2c(=O)oc3cc(S(=O)(=O)N4CCCC4)ccc32)cc1F | 0.2%
O=C(Nc1cc(Cl)ccc1Cl)c1cc(S(=O)(=O)N2CCCc3ccccc32)ccc1F | 0.1%
CCN(C(=O)CCc1nc(-c2ccc(C)cc2)no1)c1cccc(C(F)(F)F)c1 | -1.6%
CCCCN(CC)C(=O)c1cc2c(=O)n3ccccc3nc2n1C | 4.4%
Cc1cc(/C=C2\C=Cc3ccccc32)cc(C)c1[N+](=O)[O-] | -2.0%
CCc1cc(=O)oc2c(C)c(OCC(=O)Nc3ccc(S(=O)(=O)N(CC)CC)cc3)ccc12 | 4.1%
Cc1ccc(CN2c3ccccc3-c3nc(SCC(=O)NCCc4ccccc4)ncc3S2(=O)=O)cc1 | ?
Cc1ccc2nccc(/C=C/c3ccc(N(C)C)cc3)c2c1 | -0.4%
COc1ccccc1CNC(=O)C(Cc1ccccc1)NS(=O)(=O)c1ccc2c(c1)oc(=O)n2C (stereo unspecified) | -2.8%
Cc1c(C(=O)N(C)C)sc2c1c(=O)n(-c1ccccc1C(F)(F)F)c(=O)n2Cc1ccccc1C#N | -2.9%
CC(=O)c1ccc(N2CCN(c3ncnc4onc(C)c34)CC2)cc1 | -1.8%
O=C(C1CCN(S(=O)(=O)c2ccc(Br)s2)CC1)N1CCN(c2cccc(Cl)c2)CC1 | -1.3%
CCOC(=O)c1cc2c(=O)n3ccccc3nc2n(CCOC)c1=NC(=O)c1cc2ccccc2o1 | -18.8%
CCOc1ccccc1-c1ccc(C(=O)NCc2ccc(Cl)cc2)o1 | 4.7%
COC(=O)c1cc2sc(C)cc2n1Cc1cccc(OC)c1 | -17.5%
O=C(NC1CCCC1)c1ccc(CSc2nc3cccnc3n2Cc2cccc(F)c2)cc1 | 4.9%
Cc1ccccc1NC(=O)c1sc2nc3c(cc2c1N)CCCC3 | ?
Cc1nc2c(C(=O)O)cnn2c(C)c1Cc1ccccc1 | -16.7%
COc1cc(OC)c(NC(=O)Cn2cnc3sc(C)c(S(=O)(=O)N4CCC(C)CC4)c3c2=O)cc1Cl | -1.4%

An excerpt taken from the entries so far:
SMILES | ClpP mod
COc1ccc(/C=C\c2onc(C)c2S(=O)(=O)N2CCC(C(=O)Nc3cccc(OC)c3)CC2)cc1 | -23.6%
CC(=O)N1CCCc2cc(S(=O)(=O)N(C)CC(=O)Nc3ccc(C)cc3C)ccc21 | 0.6%

Next records.
SMILES | ClpP mod
COc1ccc(Cl)cc1NC(=O)CCN1C(=O)c2ccccc2Sc2ncccc21 | -0.9%
Cc1ccc(CN2CCN(C3CCNCC3)C(=O)C2=O)cc1 | 2.4%
Cc1oc(-c2cccc(Cl)c2)nc1CN1CCC(C(=O)NC(C)c2ccccc2)CC1 (stereo unspecified) | -1.5%
CC(C)CC(=O)Nc1ccccc1OCc1cc(=O)n2ccccc2n1 | ?
COC(=O)c1cc(NC(=O)CCc2c(C)nc3c(c(C)nn3C(C)(C)C)c2C)cc(C(=O)OC)c1 | -7.8%
O=C(Nc1ccccc1C(F)(F)F)c1cc2nc(-c3ccccc3)cc(-c3ccccc3)n2n1 | ?
Cc1ccc(Cl)cc1NC(=O)CCCn1c(=O)c2cccn2c2cccnc21 | -21.8%
ICC[n+]1csc2ccccc21 | -4.1%
COc1ccc(NC(=O)CSc2nc3ccccc3c(=O)n2CCC(=O)NC2CCCCC2)c(OC)c1 | 0.6%
COc1ccccc1CNC(=O)c1ccc2c(c1)N(Cc1cc(C)ccc1C)C(=O)c1ccccc1S2 | -0.4%
CC(C)(C)c1ccc2c(c1)N(CC(=O)NCCCN1CCN(c3ccccc3F)CC1)C(=O)CO2 | -0.4%
COc1ccc(-c2nc3sc(CCNC(=O)c4ccc(C(C)(C)C)cc4)c(C)n3n2)cc1 | -1.3%
O=C(c1ccc(Cl)cc1)N(Cc1ccco1)Cc1ccco1 | -2.0%
Cc1nc2nc(CNC(=O)c3cccc(F)c3)nn2c(C)c1CCC(=O)Nc1ccc(F)cc1 | -2.0%
O=C(Nc1ccc([N+](=O)[O-])cc1Cl)c1ccccc1O | -3.7%&0.1%
O=C(NCc1ccc(Cl)cc1)NC1COc2ccccc2C1 (stereo unspecified) | -0.4%
COc1ccc(NC(=O)C(NS(=O)(=O)c2cccc3nsnc23)C(C)C)cc1 (stereo unspecified) | -0.5%
Cc1cccc(CNC(=O)c2oc3c(c2C)-c2nn(Cc4ccccc4Cl)cc2CC3)c1 | ?
COc1ccc(C(=O)c2cn(Cc3ccccc3F)c3cc4c(cc3c2=O)OCO4)cc1 | -2.4%
Cc1nnc(NC(=O)CSc2nnc3c(n2)[nH]c2ccccc23)s1 | -1.6%
Cc1ccc(-c2onc(C)c2C)cc1S(=O)(=O)Nc1ccc(Cl)cn1 | 0.1%
COc1cc(OC)c(NC(=O)CCc2c(C)nc3cc(-c4ccccc4OC)nn3c2C)cc1Cl | 3.5%
Cc1nn(C(=O)c2cccc(Cl)c2)c(C)c1S(=O)(=O)N1CCOCC1 | 1.5%
Cc1ccc(-n2c(=O)c3c(C)c(C(=O)N(C)C)sc3n(CC(=O)N(C)c3ccccc3)c2=O)cc1C | -1.3%
COc1cc(NC(=O)CN2c3ccccc3S(=O)(=O)c3ccccc32)cc(OC)c1 | -21.1%
COc1ccc(NC(=O)CSc2oc(-c3cccs3)nc2S(=O)(=O)c2ccccc2)c(OC)c1 | -7.1%
COc1cccc(NS(=O)(=O)c2ccc3c(c2)CCCN3C(=O)C2CCC2)c1 | 1.5%
CC(=O)c1cccc(NC(=O)CSc2nnc3ccc(-c4ccc(C)cc4)nn23)c1 | -2.3%

Rewritten field by field: part of the list above
Molecule: COc1ccc(-c2nc3sc(CCNC(=O)c4ccc(C(C)(C)C)cc4)c(C)n3n2)cc1
  ClpP mod: -1.3%
Molecule: O=C(c1ccc(Cl)cc1)N(Cc1ccco1)Cc1ccco1
  ClpP mod: -2.0%
Molecule: Cc1nc2nc(CNC(=O)c3cccc(F)c3)nn2c(C)c1CCC(=O)Nc1ccc(F)cc1
  ClpP mod: -2.0%
Molecule: O=C(Nc1ccc([N+](=O)[O-])cc1Cl)c1ccccc1O
  ClpP mod: -3.7%&0.1%
